Screening results from PubChem BioAssay.
Anaer choline gr – blocks anaerobic gram-negative growth on choline. Gram-negative bacterium anaerobic choline minimal medium, absorbance growth; active compounds read low; many inactives read as strong as hits in the columns shown. calls only. 55,000 compounds, 0.2% hits;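 active means growth z-score on choline under -2 at 7 or 20 h with little or no fall on glycerol, limits in tiers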;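 further: stock transfer was 300 nL into about 50 µL; the organism is E. coli; final concentration not given here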
Anaer choline gr early – recorded beside Anaer choline gr, whose call it bears; z-score; measured here: choline growth z-score, timepoint 1;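 score of optical density at 7 h as mean of two plates; lower means less growth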
* hit, by the source's call; i = inactive; & = joins results of further samples. An excerpt, so the mix of outcomes need not match the whole.

Values run as follows: Anaer choline gr | Anaer choline gr early
(1) CCOc1ccc(C2Nc3ccc(Br)cc3[C@H]3OCC[C@@H]23)cc1 (stereo partly specified)
→ i | -0.72
(2) CCN1C(=O)CC(C)Nc2ccccc21 (stereo unspecified)
→ i | -2
(3) CCCCC[C@H](O)/C=C/[C@H]1[C@H](O)CC(=O)[C@H]1C/C=C\CCCC(=O)O
→ i | 1
(4) COC(=O)c1ccc2c(=O)n(Cc3ccccc3)c(N3CCOCC3)nc2c1
→ i | -0.24
(5) CN(C)CCCN1c2ccccc2Sc2ccc(Cl)cc21
→ i | -0.91&0.73&-5.9&-2.3
(6) Cc1oc2ncnc(N3CCC(C(=O)NCc4ccccc4Cl)CC3)c2c1C
→ i | -0.17
(7) COc1ccc(S(=O)(=O)NC2CCN(C(=O)c3ccccc3OC)CC2)cc1
→ i | -0.09
(8) Cc1ccc2oc(=O)c3cc(C(=O)N4CCC(C)CC4)sc3c2c1
→ i | 0.67
(9) Cn1c(=O)c2c(-c3ccc(F)cc3)c(NCCc3ccccc3)oc2n(C)c1=O
→ i | -0.41
(10) COc1ccc(C(O)(CC(C)C)C(CN2CCOCC2)c2ccccc2)cc1 (stereo unspecified)
→ i | 0.93
(11) NCCC[C@H](N)CC(=O)N[C@H]1CNC(=O)[C@H]([C@H]2C[C@H](O)NC(N)=N2)NC(=O)/C(=C/NC(N)=O)NC(=O)[C@H](CO)NC(=O)[C@H](CO)NC1=O
→ i | 0.25
(12) CCOCCCNC(=O)C1CCN(c2ccc(Cl)cc2)C1=O (stereo unspecified)
→ i | -1.9
(13) Cc1sc(-c2noc(C3CC3)n2)cc1S(=O)(=O)N1CCC(C(=O)N2CCOCC2)CC1
→ i | -0.73
(14) Cc1cc(C)cc(NC(=O)N2CCCC2C(=O)O)c1 (stereo unspecified)
→ i | -0.1
(15) Cc1cccc(-c2cc(Nc3ccc(C(=O)NC4CC4)cc3)ncn2)c1
→ i | 0.22
(16) C#C[C@]1(O)CC[C@H]2[C@@H]3CCC4=CC(=O)CC[C@@H]4[C@@H]3CC[C@@]21C
→ i | 0.79
(17) CC(C)Cc1ccc(S(=O)(=O)N2CCN(Cc3nc4cc(C(=O)N(C)C)ccc4n3C)CC2)cc1
→ i | -0.71
(18) CS(=O)(=O)N1CCCN(Cc2cccs2)CC1
→ i | -2
(19) Cc1cc(=O)n2nc(N3CCC(C(=O)NC4CCCC4)CC3)sc2n1
→ i | 0.68
(20) Cn1cc(C(CNC(=O)Nc2ccccc2)c2cccnc2)c2ccccc21 (stereo unspecified)
→ i | -0.12
(21) CCCC(O)c1nc2ccccc2n1CCCOc1cc(C)cc(C)c1 (stereo unspecified)
→ i | -0.09
(22) CCOc1ccc(-c2noc(CSc3ccc(-c4ccc(OC)c(OC)c4)nn3)n2)cc1
→ i | 0.06
(23) Cc1ccc(S(=O)(=O)NCCC(=O)N2CCCC2c2nc(-c3ccc(Cl)cc3)no2)cc1 (stereo unspecified)
→ i | 0.04
(24) CN(C)CCC=C1c2ccccc2C=Cc2ccccc21
→ i | -0.26&-0.97
(25) COc1ccc(OC)c(C2C3=C(CC(c4ccc(Cl)cc4)CC3=O)Nc3onc(C)c32)c1 (stereo unspecified)
→ i | 1.5
(26) O=C(NC1CCCC1)C1CCCN(c2ncc(-c3ccc(F)cc3)cn2)C1 (stereo unspecified)
→ i | -0.25
(27) CCc1noc2ncnc(NC3CC3)c12
→ i | -0.82
(28) CC1=C(c2ccc(F)cc2)S(=O)(=O)N(CC(=O)NCc2ccc(Cl)cc2)C1=O
→ i | -0.37
(29) CCOC(=O)C1CCCN(C(=O)c2sc3ncccc3c2-n2cccc2)C1 (stereo unspecified)
→ i | -1.9
(30) O=C(C1CCCCC1)N1CCN(Cc2noc(-c3ccccc3)n2)CC1
→ i | 1.2
(31) Cc1nc2cc(NC(=O)c3ccc(S(=O)(=O)N(C)c4ccccc4)cc3)ccc2s1
→ i | -0.77
(32) O=c1ccn(-c2ccccc2)nc1-c1nc(-c2ccncc2)no1
→ i | -0.57
(33) CCOC(=O)C1CCC(CNC(=O)N2CCCC2c2c(C)noc2C)CC1 (stereo unspecified)
→ i | 0.48
(34) Cc1ccc(-c2ccc(N3CCCC3)nn2)cc1S(=O)(=O)N1CCCCC1
→ i | -0.21
(35) Cc1cccc(N2CCN(CC(O)c3ccc4c(c3)OCO4)CC2)c1C (stereo unspecified)
→ i | -1.5
(36) O=C(Nc1cccc(-c2cc3cc(F)ccc3[nH]2)c1)c1cnccn1
→ i | 0.24
(37) COc1ccc(S(=O)(=O)c2c(C(=O)N3CCCCC3)cnc3ccccc23)cc1
→ i | -0.16
(38) Cc1ccc(-c2ccc(NCC3CCCO3)nn2)cc1S(=O)(=O)N1CCCCC1 (stereo unspecified)
→ i | -0.91
(39) COc1ccc(N2C(=O)CCS2(=O)=O)cc1S(=O)(=O)N1c2ccccc2CC1C (stereo unspecified)
→ i | 0.03
(40) CCCCn1c(=O)c2sccc2n2c(=O)[nH]nc12
→ i | -0.53
(41) Cc1onc(-c2ccccc2Cl)c1C(=O)Nc1nnc(SCC(=O)NCC2CCCO2)s1 (stereo unspecified)
→ i | 0.48
(42) CCOC(=O)C1CCN(C(=O)C2CCN(c3nc(-c4ccc(OCC)c(OC)c4)no3)CC2)CC1
→ i | -0.57
(43) CCCS(=O)(=O)c1ncc(Cl)c(C(=O)Nc2sc3c(c2C(=O)OC)CCCC3)n1
→ i | -0.2
(44) Cc1ccc(-c2ccc(N3CCN(C)CC3)nn2)cc1S(=O)(=O)N1CCC(C)CC1
→ i | -1.2
(45) COc1cccc(-c2nc(CSc3nc4ccccc4n4c(C(C)C)nnc34)c(C)o2)c1OC
→ i | 0.94
(46) CCN(CC)S(=O)(=O)c1ccc2nc(Cl)cnc2c1
→ i | 0.33
(47) CC1CN(c2ccc(F)cc2)c2nc3c(c(=O)n(CC(=O)O)c(=O)n3C)n2C1 (stereo unspecified)
→ i | 0.28
(48) O=C(CSc1ncnc2nc(N3CCSCC3)sc12)Nc1ccc2c(c1)CCC2
→ i | 0.63
(49) O=S(=O)(c1cc(-c2nnc(-c3ccccc3)o2)ccc1F)N1CCOCC1
→ i | -1.2
(50) c1ccc(-c2nc3cc(-c4noc(-c5ccc6nc[nH]c6c5)n4)ccc3o2)cc1
→ i | 0.67

(listing goes on)
Values run as follows: Anaer choline gr | Anaer choline gr early
(51) Fc1ccc(-c2nn3c(-c4ccccn4)nnc3s2)cc1
→ i | 1.4
(52) CC(C)n1cnc2nc(CSc3ccc(NC(=O)COc4ccccc4)cc3)cc(=O)n21
→ i | 5.9
(53) CCc1cc(=O)oc2c(C)c3occc(=O)c3cc12
→ i | 0.94
(54) COc1ccc(N2CCN(C(=O)C3CCCN(c4ccncc4)C3)CC2)cc1 (stereo unspecified)
→ i | 1
(55) CC1Oc2ccccc2N(CC(=O)Nc2ccc3nc(NS(C)(=O)=O)sc3c2)C1=O (stereo unspecified)
→ i | -0.07
(56) O=C(NCC1CCN(Cc2cccc(Cl)c2)CC1)Nc1ccc(Cl)cc1
→ i | -0.65
(57) O=c1[nH]c2ccc(S(=O)(=O)Nc3ccc(F)c(F)c3)cc2[nH]1
→ i | -1.8
(58) COc1cc(NC(=O)Cn2cnc3nc(N4CCCC4)ncc3c2=O)cc(OC)c1
→ i | -0.38
(59) Cc1ccc(S(=O)(=O)NCCc2c(C)[nH]c3c(Cl)cccc23)c(C)c1C
→ i | 0.62
(60) CCCN1C(=O)c2cc(S(=O)(=O)N3CCCCC3C)ccc2Oc2cccnc21 (stereo unspecified)
→ i | 1.1
(61) CC(C)(C)c1cc(/C=C(\C#N)C(N)=S)cc(C(C)(C)C)c1O
→ i | 1.1&0.64
(62) CCCCn1c(=O)c2sccc2n2c(=S)[nH]nc12
→ i | 0.64
(63) Cc1ccc(-c2nc3n(CC(=O)N4CCCCC4C)c4c(c(=O)n3n2)CCC4)cc1 (stereo unspecified)
→ i | 0.3
(64) O=C(C1CCN(S(=O)(=O)Cc2ccccc2)CC1)N(Cc1ccccc1)Cc1ccccc1
→ i | 0.59
(65) CCCCC[C@](C)(O)/C=C/[C@H]1[C@H](O)CC(=O)[C@@H]1CCCCCCC(=O)O
→ i | 0.28
(66) COc1cc(OC)cc(C(=O)Nc2cc(C)nn2-c2nc(C)cc(=O)[nH]2)c1
→ i | 0.39
(67) Cc1sc(-c2nnc(C(=O)N3CCCC3)o2)cc1S(=O)(=O)N1CCN(C)CC1
→ i | -0.67
(68) CCc1ccc(NC(=O)Cc2csc(COc3cccc(C)c3)n2)cc1
→ i | -0.02
(69) CCS(=O)(=O)c1nc2ccc(NS(=O)(=O)c3cc(F)ccc3F)cc2s1
→ i | -0.39
(70) CCOc1ccc2c(c1)cc(C(=O)Nc1cc(OC)ccc1OC)n2C
→ i | 1
(71) Cc1cc(NC(=O)CSc2nnc(NC(=O)NC3CCCCC3)s2)no1
→ i | -0.48
(72) CN(C)S(=O)(=O)c1ccc(-c2nnc(C(=O)N3CCOCC3)o2)cc1
→ i | -0.47
(73) O=C(NC(c1ccccc1)c1ccccc1)C1CCN(S(=O)(=O)c2cccnc2)CC1
→ i | -0.12
(74) Cc1ccc2cc3c(nc2c1)N(S(=O)(=O)c1ccc(OC2CCCC2)cc1)CC3
→ i | -0.22
(75) CCN1C(=O)c2ccccc2S(=O)(=O)c2ccc(C(=O)N3CCN(c4cc(C)ccc4C)CC3)cc21
→ i | -0.48
(76) Cc1ccc(C2NCCc3c2[nH]c2ccccc32)cc1 (stereo unspecified)
→ i | -1.7
(77) O=C(c1cc(-c2ccncc2)n[nH]1)N1CCCC(C(=O)N2CC=C(c3ccccc3)CC2)C1 (stereo unspecified)
→ i | 0.09
(78) CCCCC(=O)Nc1cc(S(=O)(=O)CC)ccc1OCc1cc(=O)n2oc(C)cc2n1
→ i | 1.4
(79) Cc1ccc(C)c(N2CCN(C(=O)CN3C(=O)c4ccccc4Sc4ncccc43)CC2)c1
→ i | 0.19
(80) CC1CCC(NC(=O)C2(C)Cn3c(cc4sccc43)C(=O)N2C2CCCCC2)CC1 (stereo unspecified)
→ i | -0.26
(81) CCc1ccc(NC(=O)Nc2ccc3c(c2)CCN3S(=O)(=O)c2ccccc2)cc1
→ i | -0.23
(82) CCOc1c(OC)cccc1C1CC(=O)Nc2c1c(C)nn2-c1nncc(-c2ccc(C)cc2)n1 (stereo unspecified)
→ i | -0.2
(83) CCN1C(=O)C2(c3ccccc31)C(C(=O)Nc1ccc(Br)cc1)CC1CSCN12 (stereo unspecified)
→ i | -0.09
(84) CN1CCN(CCNC(=O)c2cc3n(n2)CCCN(Cc2ccccc2)C3=O)CC1
→ i | -0.54
(85) CC(C)c1cc(C2CCCN2C(=O)c2cnn3c(C(F)(F)F)cc(-c4ccco4)nc23)on1 (stereo unspecified)
→ i | -0.53
(86) Cc1cc(Nc2ccccc2)nc(Nc2ccc(NS(C)(=O)=O)cc2)n1
→ i | 0.36
(87) CCOC(=O)c1nc(Nc2cccc(OC)c2)c2c(C)c(C)n(-c3ccccc3)c2n1
→ i | 0.29
(88) O=C(NCCc1ccccc1)Nc1ccccc1-c1cc2ccccc2[nH]1
→ i | 0.08
(89) CCOC(=O)c1c(NC(=O)c2ccc3c(c2)OCCO3)sc2c1CCCCC2
→ i | 0.56
(90) O=C(CSc1ncnc2c1cnn2-c1ccccc1Cl)N1CCCc2ccccc21
→ i | 0.93
(91) Cc1c(C(=O)NC2CCCCC2)sc2nc3n(c(=O)c12)CCC3
→ i | -0.24
(92) O=C(CCCc1nc(-c2ccc(Cl)cc2)no1)Nc1nncs1
→ i | 0.46
(93) Cn1c(=O)c2c(-c3cccc(Br)c3)c(NCc3ccccc3)oc2n(C)c1=O
→ i | -1
(94) COc1ccc(S(=O)(=O)N2CCc3cc4cccc(C)c4nc32)cc1C
→ i | 1.2
(95) CCOc1ccc(-c2nc3c(c(SCC(N)=O)n2)Cc2cccc(C)c2O3)cc1
→ i | 1.1
(96) CC1CSc2ccc(S(=O)(=O)N3CCOCC3)cc2N(CC(=O)N(C)c2ccccc2)C1=O (stereo unspecified)
→ i | 2.4
(97) CS(=O)(=O)Nc1cc(C(=O)O)ccc1N1CCN(c2cccc(Cl)c2)CC1
→ i | -0.01
(98) CCCNC(=O)c1ccc2c(=O)n(-c3ccc(F)cc3)c(SCC(=O)c3c[nH]c4ccc(OC)cc34)nc2c1
→ i | -0.2
(99) Cc1ccc(-c2ccc(-n3nc(C)c(S(=O)(=O)NC4CCCC4)c3C)nn2)cc1
→ i | 1.6
(100) O=C(Nc1ccc2c(c1)OCCO2)c1cccc(Oc2ccnc(-c3ccc(F)cc3)n2)c1
→ i | 0.77

Going on with the list.
Values run as follows: Anaer choline gr | Anaer choline gr early
(101) COc1ccc(CNC(=O)c2cc3cc4ccc(Cl)cc4nc3o2)c(OC)c1
→ i | 0.13
(102) CCC(C)NC(=O)C1=CSCCO1 (stereo unspecified)
→ i | 0.11
(103) Cc1ccc(CN2C(=O)c3ccncc3C2=O)cc1
→ i | 0.1
(104) Cc1ccc(NC(=O)Cn2nc3cc(C)nc(-c4ccc(Cl)cc4)n3c2=O)cc1
→ i | 0.7
(105) CCCN(CCC)C(=O)Cn1c(C)nc2onc(C)c2c1=O
→ i | -0.9
